Bead autofluor – counter-screen for toxin protease inhibitors: compound fluorescence. compound autofluorescence counterscreen, microsphere flow cytometry; active compounds read high. 3.1% of 360,000 active. fluorescence intensity (concentration not given with the values);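 active = at least 3 SD above the mean of all compounds, about 16000 in these data; inconclusive = too few beads counted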;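 note: 100 nL of 1 mM stock went into each well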
RN4220 kill – kills Staphylococcus aureus RN4220. S. aureus RN4220 growth, OD600, 16 h. inhibition, % (no concentration beside the values). 0.33% of 330,000 active. AID 1259311;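 active = z-score of -3 or lower and OD600 up to 0.18 on both plates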;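 note: plate controls were untreated cells for no effect and reference antibiotic for full effect; stock transfer was 100 nL into about 80 µL; one replicate is shown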
PrP UTR inh – suppresses PrP 5' UTR mRNA reporter expression. cell-based PrP 5' UTR mRNA reporter, plate reader. inhibition, % (test concentration not listed). 0.35% of 340,000 active. AID 488862;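 active = every replicate at 50% or more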;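 note: 0 = median of the neutral control wells; tested in H4 reporter cells; numbers are from one replicate; inactives centre near -14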
Sa ugtP lethal – kills S. aureus RN4220 lacking UgtP; S. aureus RN4220 ugtP deletion, OD600 growth, 16 h; some inactives read as strong as hits; 0.54% of 330,000 active; growth inhibition, % (test concentration not listed);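 active = z-score under -3 and OD600 up to 0.15 on both plates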;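 note: plate controls were untreated wells for no effect and antibiotic for full effect; wells of about 80 µL received 100 nL stock; the first replicate is given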
BJeLR lethal – BJeLR cell viability loss; BJeLR (HRASV12) viability, CellTiter-Glo ATP luminescence, 48 h; reference of the scale not given here; 0.17% of 300,000 active; inhibition, % (concentration not given with the values); AID 1554;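 active = replicate mean above 50%; inconclusive = above 50% but judged a plate artefact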;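 note: 50 nL library stock added to about 25 µL; numbers are from one replicate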
Mtb hypoxia rep – inhibitors of hypoxia-regulated fluorescent reporter in Mycobacterium tuberculosis. fluorescence inhibition, % (no concentration beside the values). 0.1% of 300,000 active. M. tuberculosis hypoxia-regulated fluorescent reporter, fluorescence;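 active = 35 to 45% if threefold the growth effect, above 45% if 1.5-fold the growth effect; inactive = the rest, general growth blockers included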;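 note: wells of about 50 µL received 100 nL stock; 0% = vehicle wells and 100% = reference inhibitor wells; whole bacteria with a GFP reporter of the hypoxia response; strong numbers were not always called active; many hits fall short of the cut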
Mtb hypoxia rep growth – also measured in Mtb hypoxia rep; calls as there; growth inhibition, %; measured here: M. tuberculosis growth (absorbance);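 0% = vehicle and 100% = reference antibiotic; read after six days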
* hit, by the source's call; ? = inconclusive; · = not tested or not shown.

SMILES	Bead autofluor	RN4220 kill	PrP UTR inh	Sa ugtP lethal	BJeLR lethal	Mtb hypoxia rep	Mtb hypoxia rep growth
CC(=O)c1ccc(OCC(=O)Nc2ccc3c(c2)CCC3)cc1	4288	1.5	-25	2	·	-6	-4
N#C/C(=C/c1ccc(Sc2nc3ccccc3[nH]2)o1)c1cccc(F)c1	23920*	6.1	-24	3	7	9	3
CN(CCOc1ccccc1)C(=O)c1cc(S(=O)(=O)N2CCOCC2)ccc1Cl	4182	-3.1	-26	-2	18	-2	-8
COCCNC(=O)c1cccc2c1C(=O)c1ccc(N3CCOCC3)cc1S2(=O)=O	3006	0.1	-17	0	·	7	11
CCOC(=O)CC1C(=O)NCCN1S(=O)(=O)c1ccccc1Cl (stereo not given)	4407	2.5	-11	0	8	8	10
Nc1nccnc1C(=O)OCC(=O)NC1CCCc2ccccc21 (stereo not given)	·	4.6	-5	-1	·	10	10
O=C(C1CCC(=O)N1Cc1ccccc1Cl)N1CCC2(CC1)OCCO2 (stereo not given)	20370*	3.8	-3	5	-3	4	5
CCCc1cc(=O)[nH]c(SCC(=O)Nc2ccc(C)c(S(=O)(=O)N3CCCCC3)c2)n1	7441	11	-12	7	·	6	5
CC(C)(C)c1ccccc1NC(=O)N1CCNC(=O)C1CC(=O)Nc1ccc(F)cc1 (stereo not given)	5574	1.4	-7	10	-10	-1	-20
CCC(NC(=O)c1ccccc1NC(=O)C(C)(C)C)C(=O)N1CC(C)OC(C)C1 (stereo not given)	·	5.3	·	12	·	7	-2
O=c1c2ccccc2nc2n1CCS2	10845	0.7	-23	3	5	5	6
COc1ccc(CNC(=O)C[C@H]2C[C@H](C(=O)N3CCCCC3)[C@@]3(C)c4[nH]c5ccc(Cl)cc5c4CCN3C2=O)cc1OC	3430	6.6	-8	-5	·	-11	8
Cn1c(C2CCCCC2)nc2ccccc21	·	3.7	-8	2	-5	1	3
COc1ccc(OC)c(CCNC(=O)C(=O)Nc2ccc3nc4n(c(=O)c3c2)CCCCC4)c1	4682	4.0	-11	-1	0	1	1
CCOC(=O)N1CCN(C(=O)c2ccc(CNS(=O)(=O)c3ccc(C)cc3)cc2)CC1	4978	-2.5	-4	2	-1	·	·
CCN(CC)CCNC(=O)C1c2ccccc2C(=O)N(C)C1c1cn(C)c2ccccc12 (stereo not given)	2715	0.3	-12	4	12	·	·
CCCc1nnc(NC(=O)CCC(=O)N2CCN(Cc3ccc(Cl)cc3)CC2)s1	5091	-0.9	-7	3	10	0	8
O=C(NCC1CCS(=O)(=O)C1)Oc1ccccc1 (stereo not given)	11847	-2.2	-25	-8	-9	-10	6
O=C(/C=C/c1ccnc2ccccc12)c1cccs1	3595	16	-7	2	1	3	6
COc1ccccc1OCc1ccc(C(=O)NN=Cc2ccco2)cc1	·	9.2	·	-1	·	5	1

Reprinted from the part before: 6 entries, then new ones.
SMILES	Bead autofluor	RN4220 kill	PrP UTR inh	Sa ugtP lethal	BJeLR lethal	Mtb hypoxia rep	Mtb hypoxia rep growth
CCOC(=O)N1CCN(C(=O)c2ccc(CNS(=O)(=O)c3ccc(C)cc3)cc2)CC1	4978	-2.5	-4	2	-1	·	·
CCN(CC)CCNC(=O)C1c2ccccc2C(=O)N(C)C1c1cn(C)c2ccccc12 (stereo not given)	2715	0.3	-12	4	12	·	·
CCCc1nnc(NC(=O)CCC(=O)N2CCN(Cc3ccc(Cl)cc3)CC2)s1	5091	-0.9	-7	3	10	0	8
O=C(NCC1CCS(=O)(=O)C1)Oc1ccccc1 (stereo not given)	11847	-2.2	-25	-8	-9	-10	6
O=C(/C=C/c1ccnc2ccccc12)c1cccs1	3595	16	-7	2	1	3	6
COc1ccccc1OCc1ccc(C(=O)NN=Cc2ccco2)cc1	·	9.2	·	-1	·	5	1
NC(=NOC(=O)c1ccc2c(c1)OCO2)c1cccc([N+](=O)[O-])c1	·	2.8	·	6	·	5	-10
COc1cc(C(=O)Oc2ccccc2/C=N/NC(=O)c2ccc(Cl)cc2Cl)cc(OC)c1OC	2937	·	-80	·	6	·	·
O=C(Nc1ccc(F)c(F)c1)C1CCCN(S(=O)(=O)c2cnc[nH]2)C1 (stereo not given)	5627	3.4	-31	11	-3	8	6
Cc1ccccc1/C=C1\C(=O)Nc2ccc(F)cc21	3652	-2.3	-7	-7	-4	-1	7
CS(=O)(=O)N(CCc1ccccc1)CC(=O)NCc1ccccn1	2978	0.3	-23	-9	-9	-3	10
CC(=O)c1ccc(N2C(=NC(=O)CCC3CCCC3)SC3CS(=O)(=O)CC32)cc1 (stereo not given)	6513	2.1	11	1	3	-8	-14
N#CC(C(=O)c1ccc(S(=O)(=O)N2CCCCCC2)cc1)c1nc2ccccc2[nH]1 (stereo not given)	5368	5.2	-25	0	2	-5	6
CCn1c(SCC(=O)NCCc2ccccc2)nc2sc3c(c2c1=O)CCN(C)C3	12212	0.6	-5	4	-12	16	10
Cc1cc(N)c(C)c([N+](=O)[O-])c1C	9835	3.6	-15	4	3	8	10
COc1ccc(-c2csc(NC(=O)c3cc(C)oc3C)n2)cc1OC	?	8.1	-12	-5	-3	-8	-3

Reformatted as labelled records: 3 of the compounds above
> Cc1ccccc1/C=C1\C(=O)Nc2ccc(F)cc21
- Bead autofluor: 3652
- RN4220 kill: -2.3
- PrP UTR inh: -7
- Sa ugtP lethal: -7
- BJeLR lethal: -4
- Mtb hypoxia rep: -1
- Mtb hypoxia rep growth: 7

> CS(=O)(=O)N(CCc1ccccc1)CC(=O)NCc1ccccn1
- Bead autofluor: 2978
- RN4220 kill: 0.3
- PrP UTR inh: -23
- Sa ugtP lethal: -9
- BJeLR lethal: -9
- Mtb hypoxia rep: -3
- Mtb hypoxia rep growth: 10

> CC(=O)c1ccc(N2C(=NC(=O)CCC3CCCC3)SC3CS(=O)(=O)CC32)cc1 (stereo not given)
- Bead autofluor: 6513
- RN4220 kill: 2.1
- PrP UTR inh: 11
- Sa ugtP lethal: 1
- BJeLR lethal: 3
- Mtb hypoxia rep: -8
- Mtb hypoxia rep growth: -14

Quoted at random: 5 compounds from above
SMILES	Bead autofluor	RN4220 kill	PrP UTR inh	Sa ugtP lethal	BJeLR lethal	Mtb hypoxia rep	Mtb hypoxia rep growth
Cc1ccccc1/C=C1\C(=O)Nc2ccc(F)cc21	3652	-2.3	-7	-7	-4	-1	7
COc1cc(C(=O)Oc2ccccc2/C=N/NC(=O)c2ccc(Cl)cc2Cl)cc(OC)c1OC	2937	·	-80	·	6	·	·
NC(=NOC(=O)c1ccc2c(c1)OCO2)c1cccc([N+](=O)[O-])c1	·	2.8	·	6	·	5	-10
N#CC(C(=O)c1ccc(S(=O)(=O)N2CCCCCC2)cc1)c1nc2ccccc2[nH]1 (stereo not given)	5368	5.2	-25	0	2	-5	6
Cc1cc(N)c(C)c([N+](=O)[O-])c1C	9835	3.6	-15	4	3	8	10

Other results.
SMILES	Bead autofluor	RN4220 kill	PrP UTR inh	Sa ugtP lethal	BJeLR lethal	Mtb hypoxia rep	Mtb hypoxia rep growth
Cc1cccc(C)c1N1CCN(c2cc(Cl)nc(N)n2)CC1	3709	-3.4	-15	24	3	-1	8
CCOc1ccccc1-n1c(SCC(=O)NC2CCCC2)nnc1-c1ccoc1C	4139	3.2	-15	3	-18	·	·
COc1ccc(S(=O)(=O)N2CCN(C(=O)c3cc4c(s3)CCC4)CC2)cc1	3332	9.0	-14	-6	·	10	13
O=C(OCn1nnc2ccccc2c1=O)c1ccc2ncsc2c1	3722	4.1	-24	-10	3	3	7
COC(=O)NN=Cc1ccccc1OC/C=C/c1ccccc1	·	42	·	10	·	2	0
Cc1ccc(-c2cc(C(=O)O)n[nH]2)s1	4924	5.1	-23	8	-3	-5	6
CC1Sc2ccc(S(=O)(=O)N(C)Cc3ccccc3)cc2NC1=O (stereo not given)	6984	9.7	2	-8	8	1	3
CN1C(C(=O)Nc2ccc(F)cc2F)=CC(c2cccs2)=NS1(=O)=O	5600	2.0	5	0	7	-5	0
O=C(NCCc1ccccc1Cl)C1CCC(=O)N(Cc2cccc(C(F)(F)F)c2)C1 (stereo not given)	5195	-4.1	-8	7	-4	8	13
CCOc1ccc(N2C(=O)/C(=C/c3ccccc3OCC(=O)OC)N(CC(=O)OC)C2=S)cc1	3452	·	-7	·	-16	·	·
CCCn1c(SCC(=O)NC2CC2)nnc1-c1ccccn1	4091	1.6	-6	12	-3	2	6
Cc1cc(C)n(-c2nc3ccccc3c(=O)n2OCC(C)C)n1	2829	4.2	-36	15	-1	9	-2
CCCNc1cc(=S)nc(N)[nH]1	4079	6.8	-10	4	-11	0	-3
COC(=O)c1c(NC(=O)Cn2cc([N+](=O)[O-])cn2)sc2c1CCC2	3673	6.5	-14	-2	-20	·	·
O=C(COC(=O)c1ccccn1)Nc1nc(-c2cccc([N+](=O)[O-])c2)cs1	5365	7.3	-15	-13	-2	-5	-4
O=C1C2C3c4ccccc4C(c4ccccc43)C2C(=O)N1/N=C/c1cccc(O)c1 (stereo not given)	17348*	·	-36	·	4	·	·
N#CC1CCN(c2ncccc2[N+](=O)[O-])CC1	3725	2.4	-2	12	2	2	-2
CCOC(=O)c1c(NC(=O)/C=C/C(=O)O)sc(C)c1-c1ccc(F)cc1	3509	16	-36	1	-1	1	14
O=C(O)c1cnn2c(-c3ccccc3)ccnc12	4450	3.6	-24	8	-1	-3	0
O=S(=O)(N/N=C1/CCCc2ccccc21)c1ccc(Br)cc1	4563	·	-1	·	1	·	·
CCOC(=O)C(=Nc1ccc(Cl)cc1)NO	2547	4.0	-10	8	3	-1	3
COc1cccc(NC(=O)N2CCCC2C(=O)NCc2ccc(Cl)cc2)c1 (stereo not given)	4043	1.6	-14	4	-4	-14	-1
COc1ccc(OC)c(/C=N/Nc2nc(C)cc(=O)[nH]2)c1	3289	·	11	·	5	·	·
Cc1ccc(C)c(SCc2noc(C(=O)NC(C)C)c2C(=O)O)c1	3585	8.2	-6	-2	0	15	7
N#Cc1c(-c2ccccc2)[nH]c(=S)[nH]c1=O	4614	1.6	-11	6	1	13	0
Cc1ccc(S(=O)(=O)N2CCC(C(=O)NCC3CC3)CC2)cc1	5188	3.8	-35	12	-21	-7	-3
CC(C)Oc1ccc(N2C(=O)c3ccccc3C2=O)cc1	3034	-1.0	-11	2	-9	·	·
CCCC(c1nnnn1CS(=O)(=O)c1ccc(C)cc1)N1CCN(c2ccc(F)cc2)CC1 (stereo not given)	4184	2.0	-28	1	4	·	·
C=CCOc1ccc(/C=C2\SC(=S)N(NS(=O)(=O)c3ccc(C)cc3)C2=O)cc1	4370	63	-19	88*	4	6	0
COc1ccccc1C(=O)NC(C(=O)NCCc1nc2ccccc2[nH]1)=C(C)C	5733	0.8	-15	6	-4	16	2
COc1ccc(-c2nc(CSCC(=O)N3CCC(C(N)=O)CC3)c(C)o2)cc1OC	6273	1.8	-16	10	4	5	3
O=C(Cc1cccs1)Nc1ccc([N+](=O)[O-])cc1	4313	0.6	5	4	-5	8	-4
c1ccc(-c2csc(NC3CCCCC3)n2)cc1	4029	-1.3	-159	-1	11	15	2
Cc1cccc(NC(=O)c2ccc3c(=O)n(CC4CCCO4)c(=S)[nH]c3c2)c1 (stereo not given)	4165	-8.7	-45	5	-1	12	-6
COc1ccc(OCc2cc(C(=O)N3CCCC(CO)C3)no2)c2ccccc12 (stereo not given)	4871	7.0	-51	-5	5	8	10
Cc1nn(-c2ccccc2)c(C)c1/C=C/C(=O)OCC(=O)N(C)C1CCS(=O)(=O)C1 (stereo not given)	3631	5.2	-16	2	8	12	16
CCN(C(=O)CSc1ccc2ccccc2n1)C1CCCCC1	3592	8.4	-27	-3	·	10	9
O=C(NNC(=S)Nc1ccccc1Cl)c1ccncc1	·	1.2	-11	2	12	-6	-8

Screening data: PubChem BioAssay, several laboratories
